Bioassay records (PubChem BioAssay)
NPR1 antag: human Npr1 receptor antagonism | P16066 | HEK293 hNpr1 GloSensor cGMP, ANP-stimulated luminescence | AID 1347048 | Potency, µM (titrated, usually from 46.3 µM), for inactives: at the top dose activity change, negative = inhibition, most hits filed as inhibitors | actives 1.6% (n = 76,000); active = well fitted inhibition curve with a large enough effect; inconclusive = small, poorly fitted or top-dose-only effect; inactive = no such curve, though single readings can be large or run the other way;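 note: nearly all actives have a fitted effect of over 60% in size; nearly all hits also lower the signal before the agonist is added; a reference antagonist and vehicle were the controls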
Target sequence (P16066 whole entry, looked up): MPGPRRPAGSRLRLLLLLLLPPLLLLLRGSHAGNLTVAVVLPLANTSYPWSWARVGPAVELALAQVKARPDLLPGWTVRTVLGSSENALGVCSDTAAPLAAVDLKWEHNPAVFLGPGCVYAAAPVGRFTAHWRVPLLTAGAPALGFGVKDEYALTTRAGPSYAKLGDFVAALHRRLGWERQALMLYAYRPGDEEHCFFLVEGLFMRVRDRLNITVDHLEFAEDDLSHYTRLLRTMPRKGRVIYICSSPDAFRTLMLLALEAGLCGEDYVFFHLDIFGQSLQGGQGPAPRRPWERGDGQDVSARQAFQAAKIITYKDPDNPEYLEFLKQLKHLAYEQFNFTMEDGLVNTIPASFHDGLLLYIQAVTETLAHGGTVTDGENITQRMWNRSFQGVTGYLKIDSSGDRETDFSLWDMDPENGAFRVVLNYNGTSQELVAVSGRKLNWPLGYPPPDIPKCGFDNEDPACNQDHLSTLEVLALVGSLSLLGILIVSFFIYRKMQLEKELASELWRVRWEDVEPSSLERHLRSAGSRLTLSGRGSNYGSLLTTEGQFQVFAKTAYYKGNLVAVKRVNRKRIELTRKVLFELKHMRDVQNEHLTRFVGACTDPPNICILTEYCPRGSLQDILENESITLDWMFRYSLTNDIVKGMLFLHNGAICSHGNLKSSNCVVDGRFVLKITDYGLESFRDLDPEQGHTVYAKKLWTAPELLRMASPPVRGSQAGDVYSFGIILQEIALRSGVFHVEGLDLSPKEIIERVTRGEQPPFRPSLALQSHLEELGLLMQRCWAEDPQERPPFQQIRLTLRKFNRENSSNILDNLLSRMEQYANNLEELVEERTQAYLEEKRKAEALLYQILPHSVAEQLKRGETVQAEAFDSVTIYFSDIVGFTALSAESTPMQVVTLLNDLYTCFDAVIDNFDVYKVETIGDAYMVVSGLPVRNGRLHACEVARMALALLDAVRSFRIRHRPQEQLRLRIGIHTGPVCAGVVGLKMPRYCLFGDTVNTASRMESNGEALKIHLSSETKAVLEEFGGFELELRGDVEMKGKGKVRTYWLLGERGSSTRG
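Compound pre-incubated 30 min at room temperature on GloSensor-loaded HEK293 cells stably carrying hNpr1 and the pGS-40F cGMP biosensor. Stimulation uses hNppA at 0.1 nM final; luminescence is taken at baseline and 20 min post-agonist.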
The depositor's hits bear a star; ? = inconclusive; & = joins results of further samples; [ ] = dose if it differs, or a comment. % is set by controls: 0 for no effect and ±100 for the full control effect; potency is the fitted concentration of half-maximal effect. This is a subset; count on the stated rates, not on these rows.

NPR1 antag,structure
-6%,Cc1ccc2cc(CCC(=O)NCCCN(C)C)c(=O)[nH]c2c1
3%,Cc1cc(C(=O)N2CC(F)(F)C[C@H]2c2nnc(C)o2)no1
2%,Cc1cccc(CC(=O)N2CCCC(c3nnnn3C)C2)c1 (configuration not stated)
1%,O=C1C[C@@H]2CCN(C(=O)COc3ccccc3)C[C@@H]2CCN1Cc1ccc2c(c1)OCO2
7%,O=C([C@H]1CCCN1)N1CCC2(CC1)Nc1ccccc1NC2=O
6%,CCCS(=O)(=O)N1CCC(C2CCN(C(=O)NC)CC2)C1 (configuration not stated)
-1%[70.6 µM],CC(C)CCNC[C@H]1O[C@H](Cc2cc(CN3CCCCC3)on2)CC[C@@H]1O
-1%,COc1cc(-c2cnc3ccccc3c2)cc2c1OCCNC2
-13%[70.6 µM],O=C1Nc2ccc(-c3ccccc3)cc2C(=O)N2CCN(C(=O)c3ccccc3)C[C@H]12
2%[70.6 µM],CN1[C@@H](CCC(=O)Nc2ccccc2)CNC(=O)[C@@H]2[C@H]1CCN2C1CCCCC1
-2%,COc1cc(OC)cc(C(=O)N2CCC3(CC2)N(C)C(=O)CS3(=O)=O)c1
-7%,Cc1ccc(C2Cn3nnc(C(=O)NCc4ccc(F)cc4)c3CO2)cc1 (configuration not stated)
4%,COc1cc(=O)n2c(c1C(=O)N1CCN(c3cc(C)ccc3C)CC1)CCCC2
5%,NC(=O)NCC(=O)N1CCc2c(cccc2S(=O)(=O)N2CCOCC2)C1
1%,COc1ccc(OC)c(S(=O)(=O)N2CCC(CC(=O)NCc3ccccc3)C2)c1 (configuration not stated)
4%,CN(C)[C@@H]1CN(C(=O)c2cc(F)cc(F)c2)C[C@H]1CO
5%,CCCn1ccnc1CN1CCc2nc(-c3ccc(Cl)cc3)[nH]c2C1
-6%[70.6 µM],CC(C)C[C@@H]1N[C@H](C(=O)N2CCCC2)Cc2c[nH]c3cccc1c23
13µM*,Nc1cc(C(=O)N2CCc3onc(-c4ccc(-c5ccccc5)cc4)c3C2)[nH]n1
5%,Cc1ccc(Cl)cc1NC(=O)N(C)CC1CCOC1 (configuration not stated)
?,O=C(c1ccc(Cl)cc1)N1CCC(Cc2nc(-c3cnccn3)no2)CC1
2%,Cc1cccc(CNC(=O)c2ccc(OC3CCN(CCc4ccccc4)CC3)cc2)n1
2%[70.6 µM],O=C1CO[C@H]2CCN(Cc3ccccc3F)CC[C@@H]2N1CCN1CCCC1
-2%[70.6 µM],COc1ccc(C(=O)NC[C@@H]2C=C(C)[C@H](CC(=O)N3CCOCC3)C[C@H]2C(C)C)cc1
1%,CCOc1ccc(-c2nc(C3CC(=O)N(c4ccc(OC)cc4)C3)no2)cc1 (configuration not stated)
-16%,Cc1cccc(NC(=O)N2CCC3(CC2)CC(N(C(=O)c2ccccc2)C2CC2)CCO3)c1 (configuration not stated)
-12%,Cc1ccc(-n2nc3n(c2=O)CCN(C(=O)Cc2ccc(F)cc2)C3)cc1
-14%,CCN(CC)c1ccc(C(=O)N2CCCC(n3cc(-c4nc(C(C)C)no4)nn3)C2)cc1 (configuration not stated)
-7%,COCc1noc(CC2CCOC3(CCN(C(=O)c4cc5ccccc5[nH]4)CC3)C2)n1 (configuration not stated)
-5%[70.6 µM],COc1ccc(-c2noc(C(=O)N3CCCC3)c2[C@H](C)O)cc1

Part of the list above in order of formula weight, lowest first.
NPR1 antag,structure
2%[70.6 µM],O=C1CO[C@H]2CCN(Cc3ccccc3F)CC[C@@H]2N1CCN1CCCC1
-1%[70.6 µM],CC(C)CCNC[C@H]1O[C@H](Cc2cc(CN3CCCCC3)on2)CC[C@@H]1O
-2%,COc1cc(OC)cc(C(=O)N2CCC3(CC2)N(C)C(=O)CS3(=O)=O)c1
1%,COc1ccc(OC)c(S(=O)(=O)N2CCC(CC(=O)NCc3ccccc3)C2)c1 (configuration not stated)
-14%,CCN(CC)c1ccc(C(=O)N2CCCC(n3cc(-c4nc(C(C)C)no4)nn3)C2)cc1 (configuration not stated)

(cont.)
NPR1 antag,structure
8%[70.6 µM],Cc1noc2c(NCC3CCOCC3)cc(-c3ccc(F)cc3)nc12
-1%,O=C(c1ccncc1)N1CCCC(c2noc(COc3ccccc3F)n2)C1 (configuration not stated)
?,Cc1ccc(O)c(CN2CC[C@@H](c3ccc4ccccc4c3)[C@H](O)C2)n1
-13%,COc1cc(OC)c(CNC(=O)c2c(C)noc2-c2ccc(OC(F)(F)F)cc2)c(OC)c1
15%&-18%[70.6 µM],O=C(NCc1cccs1)c1cc(Br)cn2ccnc12
0.71µM*,CCC1Oc2ccc(NC(=O)c3ccccc3OC(C)=O)cc2CN(Cc2ccccc2F)C1=O (configuration not stated)
-15%,Cc1cccc(OCCc2noc(C3CN(S(=O)(=O)c4ccccc4)C3)n2)c1
-29%,COc1ccc(CCC(=O)N2CCC(Oc3ccc(-c4noc(C)n4)cc3)C2)cc1 (configuration not stated)
-9%,CC(C)n1c(C2CCN(C(=O)CCc3nc4ccccc4s3)CC2)nn(C)c1=O
0%[70.6 µM],OC1(c2csc(CN3CCOCC3)n2)CCN(C2CCCC2)CC1
-18%[70.6 µM],CN1CCCC2(C1)CN(C)c1ccc(C(=O)Nc3ccc(F)cc3)cc12 (configuration not stated)
5%,N#Cc1cccc(-c2cn3c(n2)N(C(=O)C2CCCO2)CCC3)c1 (configuration not stated)
-3%,COc1ccc(C(=O)N2CCC(N3CC4CC(C3)[C@H]3CCCC(=O)N3C4)CC2)cc1F (some centres not stated)
7%[70.6 µM],CC1=C[C@@H](CNC(=O)CCC(=O)O)[C@H](C(C)C)C[C@H]1Cc1nc2ccc(C)cc2[nH]1
-15%,COc1cc(NC(=O)c2ccc3c(c2)N(C)C2CCCCN2C3=O)cc(OC)c1OC (configuration not stated)
1%,CCNC(=O)NCC1c2cc(OC)c(OC)cc2CCN1C(=O)Nc1ccc(C)cc1 (configuration not stated)
3%[70.6 µM],O=C1CCCCCN1C1CCN(Cc2ccncc2)CC1
-10%,O=C1CCCN1CCCN1C(=O)[C@@H]2C[C@@H](O)CN2C2(CN(Cc3ccc(OC(F)(F)F)cc3)C2)C1=O
0%,CC(C)Oc1ccc(CN2CCc3n[nH]c(=O)n3CC2)cc1
0%,Cc1nc2scc(CC(=O)NC(C)C)n2c(=O)c1-c1cc(C)n(-c2cccc(Cl)c2)n1
0%,CCCc1nnc(NC(=O)C2CC(=O)N(c3n[nH]c4ccccc34)C2)s1 (configuration not stated)
-7%,O=C(NCCN1CCCCC1)C1CCCN(c2cnc3nccnc3c2)C1 (configuration not stated)
-1%,O=C(CCC1CCCC1)NCC12CCC=C1N(CC1CC1)C(=O)CC2 (configuration not stated)
10%,CNC(=O)[C@H]1C[C@H](Oc2cccnc2)CN1C(=O)Nc1cccc(F)c1
11µM*,OC1CC(c2cc(NCCOCc3ccc(Cl)cc3)ncn2)C1 (configuration not stated)
-2%,CC1CCN(CC2CCCN(C(=O)CC3CCCC3)CC2)CC1 (configuration not stated)
-3%,CO[C@H]1C(=O)N(C(C)C)[C@H]1C1CCN(C(=O)c2cnccn2)CC1
-30%,COc1ccc2nc(C[C@@H]3C[C@@H](C(C)C)[C@H](CNC(=O)Nc4ccc(F)cc4)C=C3C)[nH]c2c1
-2%[70.6 µM],Cc1ccc([C@H]2C[C@@H](O)[C@@H](O)[C@@H]2NC(=O)C2CCOCC2)cc1
1%,Cc1noc(C)c1CC(=O)N1CC[C@@H](NC(=O)c2cnccn2)[C@H](O)C1
-13%,CCOC(=O)c1cccc(NC(=O)N2CC[C@@H](CC(=O)NCc3ccccc3OC)[C@@H](CC)C2)c1
12%,O=C(COc1ccc(-n2cnnn2)cc1)N1CCCC2(CCOC2)C1 (configuration not stated)
?,Cc1ccc(C)c(NC(=O)c2cc3n(n2)CC(c2ccc(Cl)cc2)OC3)c1 (configuration not stated)
-9%,COc1ccc(C(=O)NCCn2c(C)cnc2C2CC2)cn1
2%[70.6 µM],Cc1ccc(-c2nnc3ccc(NC(C)C)nn23)nc1
-14%,Cc1ccc(C(=O)N2CCC(Cc3nc(-c4cnccn4)no3)CC2)cc1
0%,Cc1ccn(CC(=O)NCCn2c(C)cnc2C2CC2)n1
-13%[70.6 µM],CN1CCN(C(=O)C[C@@H]2CCNC[C@@H]2Cc2cc(-c3ccccc3)on2)CC1
2%,COc1cccc(CC(=O)N2CCC3(CC2)CC(N(Cc2ccccc2)C2CC2)CCO3)c1 (configuration not stated)
2%[70.6 µM],COCC1(CNC(=O)c2cnccn2)C[C@@H](O)[C@@H](O)C1 (some centres not stated)
-5%,COCCOC1CCOC2(CCN(C(=O)Nc3ccccc3)CC2)C1 (configuration not stated)
?,O=C(Cc1ccsc1)N1CCC([C@@H]2CNC[C@H]2CO)CC1
-4%,Cc1cc(=O)n(CC(=O)Nc2ccccc2)c(-c2ccc(Cl)cc2)n1
1%[70.6 µM],CN1C[C@@H](NC(=O)CCC(=O)O)C[C@H]1c1nc(-c2ccc3ccccc3c2)no1
7%,O=C(Nc1ccc(C2(C(=O)NCc3ccccn3)CCCCC2)cc1)C1CC1
1%[70.6 µM],CCOc1cc2c(cn1)NCCN(Cc1ccccc1O)C2
-1%,O=C(COc1cccc(-c2nnc3n2CCCC3)c1)N1CCN(c2ccc(F)cc2)CC1
2%,Cn1cc(CN2CCN(c3ccc(C#N)cn3)CC2)c(-c2ccccc2)n1
-1%[70.6 µM],O=C(C[C@@H]1O[C@H](CNC(=O)c2cccc(F)c2)[C@@H](O)[C@H]1O)NCc1ccc(F)cc1
?,Cc1ccc(-c2cc3c(=O)n(CCNC(=O)c4cc(C5CC5)[nH]n4)ccn3n2)c(C)c1
1%,CC(C)c1nnsc1Cn1ncc(N(C)CCc2ccccc2)cc1=O
1%,O=C1NC2(CCCN(C(=O)c3ccccc3)C2)COc2ccccc21 (configuration not stated)
-22%[70.6 µM],COc1ccc(C(=O)N2CCCn3nc(C)c(-c4ccccc4-c4ccccc4)c32)cc1
3%[70.6 µM],O=C(O)C[C@@H]1CCN(C(=O)NCc2ccccc2)C[C@@H]1CC1=NCCc2ccccc21
-21%,COc1ccccc1CC(=O)N1CCC2(CC1)NC(=O)N(c1ccccc1)N2
-1%[70.6 µM],COc1cccc(Nc2ncc3c(n2)C(C)(C(=O)NC2CCN(C)CC2)CC3)c1 (configuration not stated)
4%,CN1CC2(CCN(C(=O)c3cc(-n4cccn4)ccc3Cl)CC2)OC1=O
-12%,COC(=O)C1=C(C)NC(=O)NC1c1ccc(N(C)C)cc1 (configuration not stated)
-3%,O=C([C@@H]1C[C@H](Oc2cccnc2)CN1)N1CCCC1
4%,CN(Cc1ccc2nonc2c1)Cc1cn(-c2ccccc2)nn1

Other compounds.
NPR1 antag,structure
4%,COCc1nc(C2CCCN(C(=O)Cc3ccc(C)cc3)C2)no1 (configuration not stated)
2%[70.6 µM],OCc1ccc(-c2cc(-c3ccncc3)c3cncn3c2)cc1
2%,CCC[C@@H]1CN(Cc2[nH]cc(C)c(=O)c2C)C[C@H]1C(=O)O
-4%,COc1cccc(CC(=O)N2[C@@H]3CC[C@H]2CC(NC(=O)c2ccc(F)cc2)C3)c1 (some centres not stated)
2%,CCn1ccc(C(=O)N2CC3CC(C2)[C@H]2CCCC(=O)N2C3)n1 (some centres not stated)
3%,Cc1nc(CCNC(=O)c2cnc(-c3cccnc3)nc2)cc(=O)[nH]1
-1%[70.6 µM],CNC(=O)c1cc(-c2cnc(OC)nc2)cc2c1OCCN2Cc1cccnc1
5%,CCn1nccc1C(=O)N1CCCN(S(C)(=O)=O)C(c2ccccc2)CC(=O)NCC1 (configuration not stated)
-2%,Cc1ccc(C(=O)N2CCC(CCC(=O)NCc3nc4ccccc4n3C)CC2)cc1
-12%,Cc1nc(C(=O)N2CCCC(c3[nH]ncc3Cc3ccccc3)C2)cs1 (configuration not stated)
-1%,C[C@@H](c1ccccc1)N(C)C(=O)c1cc(COc2cccc(F)c2)[nH]n1
-12%,O=C1CCN(S(=O)(=O)c2ccccc2)CCCN(CC2CCCCC2)CCN1
-11%,Cc1ccc(CNC(=O)c2ccc3c(c2)CN(Cc2cncs2)CCO3)cc1
-3%,COc1ccc(CNC(=O)N2CCCC(Cc3noc(-c4ccncc4)n3)C2)cc1 (configuration not stated)
-3%,COc1ccc2[nH]cc(CCNC(=O)CCC[C@H]3NC[C@@H]4C[C@H]3CN(Cc3ccccc3)C4)c2c1
-1%,Cn1c(=O)c2c(ncn2CC(=O)N2CCC(Cc3nc(C4CCOCC4)no3)CC2)n(C)c1=O
-13%,Cc1cc(C(=O)N2C[C@@H](COc3ccccc3)[C@H](C(N)=O)C2)c(C)o1
?,O=C(c1ccccc1F)N1CCC(Cc2nc(C3CCOCC3)no2)CC1
-1%,O=C(NCc1ccccn1)C1c2ccccc2C(=O)N(C2CCCCC2)C12CCCCC2 (configuration not stated)
3%[70.6 µM],COc1ncccc1-c1nc(-c2c(C)noc2C)cc2c1cc(C)n2CCN(C)C

An excerpt of these results, field by field.
CO[C@H]1C(=O)N(C(C)C)[C@H]1C1CCN(C(=O)c2cnccn2)CC1
  NPR1 antag: -3%

COc1ccc2nc(C[C@@H]3C[C@@H](C(C)C)[C@H](CNC(=O)Nc4ccc(F)cc4)C=C3C)[nH]c2c1
  NPR1 antag: -30%

Cc1ccc([C@H]2C[C@@H](O)[C@@H](O)[C@@H]2NC(=O)C2CCOCC2)cc1
  NPR1 antag: -2%[70.6 µM]

Cc1noc(C)c1CC(=O)N1CC[C@@H](NC(=O)c2cnccn2)[C@H](O)C1
  NPR1 antag: 1%
